# RAD52 inh: RAD52 DNA annealing inhibitors, primary screen, biochemical, FRET, single point, set 2; DNA repair protein RAD52 homolog (Homo sapiens), P43351; recombinant RAD52 DNA annealing, FRET fluorescence; inhibition, % at 18.7 µM; 360,000 compounds, 0.46% hits;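 active means every replicate showing at least 50% inhibition; inconclusive means mean inhibition at least 50% but not in every replicate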
# esBAF inh: Bmi1 luciferase reporter increase in mESCs, primary screen, esBAF inhibitor project, mouse ES cells, Bmi1 luciferase knock-in, single point. 24 h; 100% = twice the neutral-well signal. reporter increase, % at 12.5 µM. 350,000 compounds, 2% hits; in the data active means activation above about 40%; inconclusive means no clear call, values can overlap the other calls;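 further: 0% = median of the plate's neutral control wells and 100% = double that signal; a rise in the Bmi1 reporter signal indicates esBAF inhibition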
# CFTR F508del cor: F508del CFTR correction, initial screen, CFBE line, single point. activity (quench increase), % at 7.58 µM. 350,000 compounds, 0.36% hits. CFBE cells, YFP halide quenching; stimulated with forskolin plus potentiator P3; % fluorescence drop versus neutral controls;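 active means mean added fluorescence quench of at least 8% versus neutral control, with both replicates also reaching 8%; inconclusive means only one of the mean or replicate conditions met; inactive means mean below 8% and not both replicates reaching 8%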;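 further: cells transiently co-express mutant CFTR-F508del with the halide-sensitive YFP; corrector assay measuring rescue of mutant channel to the surface after 24 h compound exposure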
# INS-1E GSIS act: GLuc luminescence reporter in INS-1E cells, primary screen for activators of glucose-dependent secretion of insulin; AID 743287, 2014; activation, % at 16.6 µM; INS-1E GLuc reporter insulin secretion, 2-3 h; 370,000 compounds, 0.61% hits;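 active means lowest replicate activation of at least 40%, so every replicate reaches that level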;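 further: 0% = median of neutral control wells and 100% = median of IBMX positive control wells; some compounds called inactive have numbers as strong as hits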
# ERAP1 inh: human ERAP1 aminopeptidase inhibitors, primary screen, biochemical, single point, plate reader; recombinant ERAP1, Leu-AMC fluorescence, 60 min; inhibition, % at 10.7 µM; 340,000 compounds, 0.15% hits; AID 652197, 2013;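 active means mean replicate inhibition of at least 30%, or all replicates individually reaching that 30% level; inactive means mean below 30% and not every replicate reaching it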;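 further: 0% = neutral control wells and 100% = L-leucinethiol positive control wells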
# Target sequence (Q9NZ08 whole entry, looked up): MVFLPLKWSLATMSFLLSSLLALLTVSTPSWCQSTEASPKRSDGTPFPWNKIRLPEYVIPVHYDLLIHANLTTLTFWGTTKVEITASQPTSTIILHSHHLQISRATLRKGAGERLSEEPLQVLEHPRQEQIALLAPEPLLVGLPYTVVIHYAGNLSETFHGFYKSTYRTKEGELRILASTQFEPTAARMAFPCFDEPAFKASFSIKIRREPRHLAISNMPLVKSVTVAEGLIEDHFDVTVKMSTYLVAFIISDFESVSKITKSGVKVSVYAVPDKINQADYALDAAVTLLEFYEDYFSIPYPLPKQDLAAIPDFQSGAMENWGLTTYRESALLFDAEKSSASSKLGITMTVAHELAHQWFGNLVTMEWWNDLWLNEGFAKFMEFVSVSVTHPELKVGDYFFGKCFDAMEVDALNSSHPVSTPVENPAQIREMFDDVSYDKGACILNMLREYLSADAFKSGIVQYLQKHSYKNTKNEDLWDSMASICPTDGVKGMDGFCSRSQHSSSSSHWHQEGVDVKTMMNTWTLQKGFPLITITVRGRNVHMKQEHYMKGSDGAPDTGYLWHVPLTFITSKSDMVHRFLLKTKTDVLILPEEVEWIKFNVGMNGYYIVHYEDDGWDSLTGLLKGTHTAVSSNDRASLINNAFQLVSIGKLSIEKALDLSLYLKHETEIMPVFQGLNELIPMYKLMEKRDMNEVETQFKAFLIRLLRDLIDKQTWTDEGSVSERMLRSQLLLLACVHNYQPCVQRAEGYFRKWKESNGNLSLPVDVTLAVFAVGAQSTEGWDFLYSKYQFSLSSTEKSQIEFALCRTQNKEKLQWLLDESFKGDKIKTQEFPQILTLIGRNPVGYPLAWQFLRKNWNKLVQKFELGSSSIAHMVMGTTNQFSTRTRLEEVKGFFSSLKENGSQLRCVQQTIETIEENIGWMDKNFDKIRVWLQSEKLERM
# RAD54 inh: inhibitors of human RAD54 branch migration, primary screen, biochemical, fluorescence, single point; DNA repair and recombination protein RAD54-like (Homo sapiens), Q92698; RAD54 Holliday junction branch migration, FAM/BHQ fluorescence; inhibition, % at 10.4 µM; 360,000 compounds, 0.14% hits; AID 602329, 2012;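 active means mean normalized replicate activity at least 40 and at least half of replicates scoring 40 or more; inconclusive means only one of the two criteria met; inactive means mean below 40 and under half of replicates reaching 40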;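 further: 0% = median of neutral control wells and 100% = median of positive control wells; inhibitors cause a drop in the FAM fluorescence signal; in these data hits start at about 50%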
# XiGFP reactiv: activators of inactive X chromosome reactivation, primary screen, imaging, XiGFP fibroblasts, GFP high-content imaging, set 2. 360,000 compounds, 0.055% hits. activation, % at 7.58 µM. XiGFP mouse fibroblasts, % GFP-positive cells imaging, 3 d; cells co-treated with 5-aza-dC sensitizer; scaled so ellipticine positive control = 100%;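 active means mean normalized replicate activation at least 10% and every replicate at or above 10%; inconclusive means only one of the two criteria met; inactive means mean below 10% and not all replicates reach 10%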;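 further: 0% = median of on-plate neutral control wells and 100% = ellipticine 6 µM median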
#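 System: 68-5-11 XiGFP fibroblast line | Buffer or medium: DMEM containing 5-aza-dC | Compound: Single point | Times: Compounds 3 days, fix/stain 15 min at room temperature | Benchmarks: Positive control ellipticine, 6 µM final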
# The depositor's hits bear a star; u = inconclusive; x = no result given. An excerpt. The share of hits here may be higher or lower than overall.
# Under each structure – RAD52 inh, esBAF inh, CFTR F508del cor, INS-1E GSIS act, ERAP1 inh, RAD54 inh, XiGFP reactiv
CC(C)(C)c1cc(NC(=O)C2CCCO2)no1 (stereo unspecified)
    2, 28, 1.5, 24, 2, -9, x
CCCC(=O)Nc1ccc(Cl)c(-c2nc3ncccc3o2)c1
    -13, -14, -1.0, -3, 3, -2, 0.1
COCCN1C=C2C(=O)C(C)(OC(=O)CCc3ccccc3)C(=O)C=C2C=C1c1ccc(C#N)cc1 (stereo unspecified)
    -30, -1, -2.1, 17, -5, -14, 0.0
O=C(COC(=O)c1ccccn1)c1ccc([N+](=O)[O-])cc1
    -13, -3, -3.8, 4, 1, 5, -0.1
Cc1cc(C)c2ccc(/C=N/O)nc2c1O
    -7, -2, 1.2, 20, 0, -3, 0.3
CCN1C(=O)CSC1=Nc1ccc(Cl)c(Cl)c1
    -5, -4, 2.5, -10, 1, 5, 0.2
CCOC(=O)c1cccc(-n2cccc2/C=C2\NC(=O)N(CC(=O)O)C2=O)c1
    -9, -6, 0.8, x, 7, 2, 1.3
COc1ccc(-c2cc(-c3n[nH]c(=S)n3-c3ccccc3OC)[nH]n2)cc1
    x, x, x, 22, x, x, -0.1
COc1ccc2cc(C#N)c(N3CCOCC3)nc2c1
    -25, -1, -0.7, 0, -2, 4, 0.2
O=C(Nc1ccccc1)c1cccc(S(=O)(=O)Nc2ccccn2)c1
    x, x, x, 3, x, x, x

# The list goes on (2 carried over from the part before).
# Under each structure – RAD52 inh, esBAF inh, CFTR F508del cor, INS-1E GSIS act, ERAP1 inh, RAD54 inh, XiGFP reactiv
COc1ccc2cc(C#N)c(N3CCOCC3)nc2c1
    -25, -1, -0.7, 0, -2, 4, 0.2
O=C(Nc1ccccc1)c1cccc(S(=O)(=O)Nc2ccccn2)c1
    x, x, x, 3, x, x, x
COc1ccc(NC(=O)Nc2ccc3c(c2)C(=O)N([C@@H](C)CO)C[C@H](C)[C@@H](CN(C)C(=O)CCC(F)(F)F)OCCCC[C@H](C)O3)cc1
    x, -8, -3.4, -15, x, 3, -0.6
COc1cc(/C=C2\CCCc3c2nc2ccccc2c3C(=O)O)cc(Cl)c1O
    -43, -4, 2.0, 11, 0, 4, 0.0
Cc1[nH]n(-c2ccc(Cl)cc2)c(=O)c1/C=N/c1nnc(-c2ccccc2)s1
    x, x, x, 29, x, x, x
CCOc1ccc(C=NC23CN4CN(CN(C4)C2)C3)cc1
    x, -11, x, x, x, 11, x
CCOC(=O)c1cnc(-n2nc(C)cc2C)nc1Nc1ccc(O)cc1
    -26, x, -8.6, -49, 3, x, 0.6
CCn1c(Cc2ccccc2)nnc1SCC(=O)Nc1ccc(C)cc1
    x, -6, x, -8, x, 1, x
C/C(=N/NC(=O)c1cccc(C)c1)c1c(O)cc(C)oc1=O
    x, 29, x, x, x, 11, x
O=C1c2ccccc2C(=O)N1C(CO)C(O)c1ccc([N+](=O)[O-])cc1 (stereo unspecified)
    -6, 1, -5.2, 9, 5, -8, -0.1
COc1cccc2sc3ccc(NCc4ccc5c(c4)OCO5)cc3c(=O)c12
    -27, 15, 3.5, -1, 4, 18, 0.6
O=C(c1cc(-n2cnnc2)ccc1Cl)N1CCN(c2nc(-c3ccccc3)cs2)CC1
    x, x, x, x, x, 0, x
Cc1ccc(NC(=O)CSc2nnc(-c3cc(C)on3)o2)cc1
    -4, 7, 0.1, -8, 0, -9, 0.0
C/C(=N\NC(=O)c1cccc(S(=O)(=O)Nc2ccccc2Cl)c1)c1ccco1
    x, -3, x, -2, x, x, 0.5
Cc1cc(Br)ccc1SCC(=O)OCC(=O)Nc1ncc(C(F)(F)F)cc1Cl
    x, x, x, 10, x, -4, 0.1
COc1ccc(-c2cc(=Nc3c(C)n(C)n(-c4ccccc4)c3=O)c3ccccc3o2)cc1
    -13, u, -0.4, -3, -3, 13, 0.4
C=CCN(C(=O)Nc1ccc2c(c1)nc(C)n2C)c1ccccc1
    -4, 8, 1.5, 45, -1, x, 0.0
Cc1cc(NC(=O)CSc2nnc(-c3cccc(Cl)c3)o2)no1
    -9, 15, -1.1, 8, 3, 2, 0.4
CCn1c(CNc2ccc(C)cc2)nnc1SCC(N)=O
    x, 10, x, x, x, 5, x
OCC1(c2cc(C(F)(F)F)n[nH]2)CCCCC1
    x, 3, x, 0, x, -1, x
COc1cc([N+](=O)[O-])ccc1NC(=O)NCc1ccccn1
    -10, x, -1.7, -1, 2, 0, 0.4
Cc1cc(C)c(C(=O)CC(=O)c2ccccc2Cl)c(O)c1
    -8, 3, 1.8, -47, 6, -4, -0.1
C[C@@H]1CN([C@@H](C)CO)C(=O)c2cc(C#Cc3ccccn3)cnc2O[C@H]1CN(C)Cc1ccccc1
    x, -2, -1.5, -4, x, x, -1.3
CC(=O)c1cccc(NC(=O)c2ccco2)c1
    x, 0, x, x, x, -8, x
COc1ccc2c(CC(=O)NNC(=O)c3ccc(O)cc3)coc2c1
    -18, 13, -2.4, 13, 0, -1, 0.2
CCOc1ccc(-c2nnc(SCC(=O)Nc3cc(C)on3)o2)cc1
    -9, x, -2.0, 2, 2, x, -0.1
CC(=O)OCCc1c(C)nc2nc[nH]n2c1=O
    x, -5, x, x, x, 14, x
Oc1cccc(/C=N/Nc2nn3cnnc3c3ccccc23)c1
    -2, -12, -1.1, 10, x, 23, -0.2
Cc1nc2nc[nH]n2c(=O)c1NC(=O)CCc1ccccc1
    x, -7, x, x, x, 1, x
CNC(=O)c1cc2c(cn1)[nH]c1ccccc12
    -19, 37, -1.7, x, 3, -1, -0.1
C[C@H](CO)N1C[C@H](C)[C@H](CN(C)C(=O)Cc2cccnc2)Oc2ncc(C3=CCCCC3)cc2C1=O
    10, -5, -3.3, 4, 2, -4, 0.0
C[C@@H]1CN([C@H](C)CO)C(=O)c2cc(NS(=O)(=O)c3ccc(Cl)cc3)ccc2O[C@@H](C)CCCCO[C@H]1CN(C)C(=O)Nc1ccc(F)cc1
    -17, -6, -2.9, -11, -4, -5, 0.3
CCNC(=O)Nc1ccc2c(c1)C(=O)N(C)[C@@H]1CC[C@H](CC(=O)N[C@H](C)c3ccccc3)O[C@@H]1CO2
    -15, -4, x, 7, x, 3, 0.2
CC1(C)COC(c2cccc(C3=NC(C)(C)CO3)n2)=N1
    x, x, x, 10, x, x, 0.0
O=C(N/N=C/c1ccccn1)c1cccs1
    -34, x, -3.8, 6, 0, x, -0.1
O=C(CSc1nnc2ccc(-c3ccco3)nn12)Nc1ccccc1F
    -4, x, -3.4, 1, -1, x, 0.1
COC(=O)C1=CN(Cc2ccc(OC)cc2)C=C(C(=O)OC)C1c1cc(OC)c(OC)c(OC)c1
    x, 8, x, x, x, 9, x
CC(=O)Nc1cccc(/C(C)=N/NC(=O)c2ccc(NS(=O)(=O)c3cccs3)cc2)c1
    -8, x, -2.7, -11, 1, -1, 0.0
COc1ccc(C)cc1NC(=O)c1ccc2c(O)c(S(=O)(=O)c3ccccc3)c(=O)[nH]c2c1
    -13, 2, 3.2, -10, -3, -20, 0.0
C(=N\Nc1ncnc2sc3c(c12)CCC3)/c1ccncc1
    x, -2, x, x, x, 5, x
COc1ccc(-c2cnnn2-c2ccc([N+](=O)[O-])cc2)cc1
    -3, -2, 0.3, 3, 2, -3, 0.0
Cc1cc(C)c(NC(=O)C2CCCN2CCO)c(C)c1 (stereo unspecified)
    x, -1, x, x, x, 3, x
COc1ccc(-c2nnc(S/C(=C/c3ccc(Cl)cc3)C(=O)O)o2)cc1
    -1, x, -1.4, 2, -5, x, 0.0
O=[N+]([O-])c1c(NCCO)cc(N2CCC3(CC2)OCCO3)c2nonc12
    x, 5, x, 22, x, -4, 0.0
O=C(CSc1nnc(COc2ccccc2)o1)Nc1nccs1
    -17, 8, 0.6, 3, -1, 7, 0.3
C[C@@H]1CN([C@H](C)CO)S(=O)(=O)c2ccc(C#CCN(C)C)cc2O[C@H]1CN(C)Cc1cccnc1
    -5, 0, 0.6, 2, 4, -2, -0.9
CN(C)CCCN(C(=O)C1COc2ccccc2O1)c1nc2cc3c(cc2s1)OCO3 (stereo unspecified)
    -6, 0, 1.2, -33, 0, 24, 0.0
CN(C)C(CNc1ccc(C(F)(F)F)cc1[N+](=O)[O-])c1ccccc1 (stereo unspecified)
    -8, 10, -0.2, -25, 1, -1, 0.4
CCOC(=O)N1CCN(c2cc(NCCO)c([N+](=O)[O-])c3nonc23)CC1
    -14, -2, -0.5, 9, 2, -6, 0.1
COCCNC(=O)C[C@H]1C[C@@H]2c3cc(NC(=O)C4CCOCC4)ccc3O[C@@H]2[C@H](CO)O1
    -5, -3, -0.1, 19, 0, -15, 0.0
COc1ccc(NC(=O)CC(NCc2ccccn2)C(=O)O)cc1 (stereo unspecified)
    -13, x, 2.6, 14, -1, x, 0.0
CN(Cc1cc(=O)n2ccsc2n1)Cc1nc2ccccc2c(=O)[nH]1
    -35, 10, -2.7, 0, 0, 0, 0.0

# Additional records.
# Under each structure – RAD52 inh, esBAF inh, CFTR F508del cor, INS-1E GSIS act, ERAP1 inh, RAD54 inh, XiGFP reactiv
CCSc1nnc2c(n1)[nH]c1c(C)cccc12
    x, 89*, x, 5, x, 3, x
O=C(OCC(=O)c1ccc(Cl)cc1Cl)c1ccccn1
    -14, -2, 3.6, 12, 0, -12, 0.4
C[C@@H]1CCCCO[C@@H](CN(C)C(=O)c2ccncc2)[C@H](C)CN([C@H](C)CO)C(=O)c2cc(NC(=O)Cc3ccccc3)ccc2O1
    11, 4, 1.5, -2, -5, -7, 0.0
COc1ccc(/C=C/C(=O)NC(=S)N2CCSCC2)cc1
    -7, x, 0.8, 8, 0, x, 0.0
C[C@H](CO)N1C[C@H](C)[C@H](CN(C)Cc2ccc(-c3ccccc3)cc2)Oc2c(NC(=O)c3ccncc3)cccc2C1=O
    -6, 2, -2.7, -10, 8, 1, 0.1
O=C(Nc1cccc(-c2ccc3nncn3n2)c1)c1ccco1
    -6, -1, 3.1, 23, x, -2, -0.1
O=S(=O)(c1cccc(F)c1)N1CCN(Cc2cc3c(cc2Br)OCCO3)CC1
    -17, -1, 2.7, -4, -2, -7, 0.2

# Among those listed so far, 9 contain an NH in an aromatic ring:
# Under each structure – RAD52 inh, esBAF inh, CFTR F508del cor, INS-1E GSIS act, ERAP1 inh, RAD54 inh, XiGFP reactiv
COc1ccc(-c2cc(-c3n[nH]c(=S)n3-c3ccccc3OC)[nH]n2)cc1
    x, x, x, 22, x, x, -0.1
Cc1[nH]n(-c2ccc(Cl)cc2)c(=O)c1/C=N/c1nnc(-c2ccccc2)s1
    x, x, x, 29, x, x, x
OCC1(c2cc(C(F)(F)F)n[nH]2)CCCCC1
    x, 3, x, 0, x, -1, x
CC(=O)OCCc1c(C)nc2nc[nH]n2c1=O
    x, -5, x, x, x, 14, x
Cc1nc2nc[nH]n2c(=O)c1NC(=O)CCc1ccccc1
    x, -7, x, x, x, 1, x
CNC(=O)c1cc2c(cn1)[nH]c1ccccc12
    -19, 37, -1.7, x, 3, -1, -0.1
COc1ccc(C)cc1NC(=O)c1ccc2c(O)c(S(=O)(=O)c3ccccc3)c(=O)[nH]c2c1
    -13, 2, 3.2, -10, -3, -20, 0.0
CN(Cc1cc(=O)n2ccsc2n1)Cc1nc2ccccc2c(=O)[nH]1
    -35, 10, -2.7, 0, 0, 0, 0.0
CCSc1nnc2c(n1)[nH]c1c(C)cccc12
    x, 89*, x, 5, x, 3, x

# Source: PubChem
